Cruzain noTriton: blocks cruzain activity in detergent-free assay | purified cruzain, Z-FR-AMC fluorescence, no detergent | 200,000 compounds, 2.3% hits | P25779 | Potency, µM, for inactives: max response, negative = inhibition, hits mostly inhibitors;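 note: plate controls were enzyme without inhibitor for no effect and buffer without enzyme for full effect; nearly all actives have a fitted effect of over 40% in size; top concentration of the series not given in the record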
Target sequence (P25779 123-467 limits assumed): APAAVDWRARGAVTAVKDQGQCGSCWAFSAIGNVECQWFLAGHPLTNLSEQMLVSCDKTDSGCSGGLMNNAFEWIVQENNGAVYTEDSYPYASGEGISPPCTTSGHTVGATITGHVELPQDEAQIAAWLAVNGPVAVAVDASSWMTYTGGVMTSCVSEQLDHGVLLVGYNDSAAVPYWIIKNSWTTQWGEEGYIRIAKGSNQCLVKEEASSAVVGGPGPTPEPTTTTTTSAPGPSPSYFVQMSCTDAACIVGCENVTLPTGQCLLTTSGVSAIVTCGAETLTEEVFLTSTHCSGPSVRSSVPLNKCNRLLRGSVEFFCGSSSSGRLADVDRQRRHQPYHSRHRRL
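Detergent-free condition (0.00005% Triton X-100) in acetate buffer pH 5.5 with DTT. 1.5 nM enzyme and compound were pre-mixed 15 min, then 2 uM Z-FR-AMC substrate added; reaction progress from fluorescence change between first and third reads (60 s).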
Lassa entry inh: inhibitors of Lassa virus binding or cell entry. Lassa virus pseudotype entry inhibition, cell reporter; control for the full effect not named in the record. Potency, µM (highest dose often 37.9 µM), for inactives: top-dose activity change, negative = inhibition, hits mostly inhibitors. 300,000 compounds, 1.2% hits. AID 540256; active means well fitted inhibition curve with a large enough effect; inconclusive means small, poorly fitted or top-dose-only effect, or effect the other way; inactive means flat fitted curve, though single readings scatter; tested in HEK293 cells; note: % is set by controls: 0 for no effect and ±100 for the full control effect; nearly all actives have a fitted effect of over 50% in size; luciferase read-out
Cruzain inh Det: inhibitors of Trypanosoma cruzi cruzain with detergent | P25779 | purified cruzain, Z-FR-AMC fluorescence, 0.01% Triton | Potency, µM, for the others: max response, negative = inhibition, hits mostly inhibitors | 200,000 compounds, 0.43% hits | AID 1478;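 note: plate controls were neutral wells for no effect and buffer without enzyme for full effect; nearly all actives have a fitted effect of over 40% in size; top concentration of the series not given in the record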
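Steps: dispense cruzain (1.5 nM final) in acetate buffer pH 5.5 with DTT and 0.01% Triton X-100; pin-transfer compounds; incubate 15 min RT; add Z-FR-AMC (2 uM final); read fluorescence every 30 s, using the 60 s intensity change.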
NS1 function inh: blocks influenza NS1 protein function; 270,000 compounds, 0.4% hits; Potency, µM (series often up to 46.1 µM), for the others: top-dose activity, positive = more growth; S. cerevisiae slowed by influenza A NS1, growth recovery by OD600; active means well fitted rising curve with a large enough effect; inconclusive means small, poorly fitted or top-dose-only effect; inactive means no such curve, though single readings can be large or run the other way; note: nearly all actives have a fitted effect of over 50% in size
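Recovery from NS1-induced slow growth read by OD600 in budding yeast switched to galactose assay medium (pH 6.0, -URA) at 1:100 dilution. Compound 23 nl per well; the matching strain lacking NS1 serves as control.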
SARS PLpro yeast: blocks SARS-CoV papain-like protease in a yeast assay. S. cerevisiae expressing SARS-CoV PLpro, growth rescue; control for the full effect not named in the record. Potency, µM (highest dose often 32.9 µM), inactives show top-dose activity, positive = growth rescue. 330,000 compounds, 0.19% hits; active means well fitted rising curve with a large enough effect; inconclusive means small, poorly fitted or top-dose-only effect; inactive means no such curve, though single readings can be large or run the other way; note: 0% is about no effect; nearly all actives have a fitted effect of over 55% in size; growth read by luminescence after 48 h
RE007 growth inh: less growth of the S. pombe RE007 Vpr strain. S. pombe RE007 Vpr strain, BacTiter-Glo ATP luminescence, 24 h; control for the full effect not named in the record. Potency, µM (doses to about 92.2 µM), for inactives: top-dose activity change, negative = less growth. 360,000 compounds, 0.21% hits; active = well fitted falling curve with a large enough effect; inconclusive = small, poorly fitted or top-dose-only effect; inactive = no such curve, though single readings can be large or run the other way;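 note: % is set by controls: 0 for no effect and ±100 for the full control effect; nearly all actives have a fitted effect of over 50% in size; the assay follows cell death caused by Vpr and the record does not say whether a fall means rescue or toxicity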
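Fission yeast RE007 carrying one integrated HIV-1 vpr copy, seeded at OD 0.01 in PMG+AL medium with 23 nL pinned compound. Grown 24 h at 30 degrees; viability read by BacTiter-Glo luminescence after 5 min.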
2A StopGo: FMDV 2A StopGo reporter, luciferase signal. human cells with a luciferase reporter of 2A StopGo recoding; control for the full effect not named in the record. Potency, µM (titrated, usually from 57.9 µM), without a hit: at the highest dose signal change, negative = less light. 410,000 compounds, 1.2% hits. AID 1159524; active = well fitted falling curve with a large enough effect; inconclusive = small, poorly fitted or top-dose-only effect; inactive = no such curve, though single readings can be large or run the other way; tested in HEK293T cells; note: % is set by controls: 0 for no effect and ±100 for the full control effect; nearly all actives have a fitted effect of over 45% in size; luciferase light after 4 h
Marburg entry inh: inhibitors of Marburg virus binding or cell entry; Marburg virus pseudotyped entry inhibition, cell reporter; control for the full effect not named in the record; about a third of the inactives were read at about 46 µM; Potency, µM (titrated, usually from 37.8 µM), for the others: at the highest dose activity change, negative = inhibition, hits mostly inhibitors; 300,000 compounds, 1.8% hits; AID 540276; active = well fitted inhibition curve with a large enough effect; inconclusive = small, poorly fitted or top-dose-only effect, or effect the other way; inactive = flat fitted curve, though single readings scatter; tested in HEK293 cells; about a fifth of its hits are not listed in these tables; note: % is set by controls: 0 for no effect and ±100 for the full control effect; luciferase read-out
An asterisk follows results filed as active; u = inconclusive; x = no result given; & = joins results of further samples; [ ] = dose if it differs, or a comment. Unless noted, calls come from the whole dose curve; as a rule, active = well fitted curve in the direction sought with a large enough effect; inconclusive = small, poorly fitted or top-dose-only effect, or another doubt; inactive = no such curve, though single readings can be large; an effect the other way counts as inactive or inconclusive. Potency is the fitted concentration of half-maximal effect.

SMILES	Cruzain noTriton	Lassa entry inh	Cruzain inh Det	NS1 function inh	SARS PLpro yeast	RE007 growth inh	2A StopGo	Marburg entry inh
COc1ccc(NCc2nnc(SCC(=O)N3CCCc4ccccc43)n2C)cc1	-1%	-7%	-0.9%	-4%	1%	2%	20%	-13%
COc1ccccc1NC(=O)CCSc1ccc(C)cc1	x	-20%	x	-8%	-1%	-5%	-29%	3%
CCOC(=O)c1c(NC(=S)N2CCCCC2)sc2c1CCN(C(=O)OCC)C2	x	-1%	x	2%	1%	-25%	-17%	u
O=C(CCSCCC(=O)NCCN1CCOCC1)NCCN1CCOCC1	-4%	3%	6.6%	-8%	1%	24%	-5%	u
CC(=O)C1=NN(c2ccccc2)C(c2ccc3c(c2)OCO3)N1c1ccccc1 (stereo not drawn)	u	-17%	-4.2%	2%	3%	0%	-23%	1%
CCc1ccc(S(=O)(=O)c2nnn3c2nc(N2CCOCC2)c2ccccc23)cc1	x	3%[46.1 µM]	x	-6%	-8%	10%	12%	6%[46.1 µM]
O=C(CC1C(=O)NCCN1Cc1ccoc1)NCCCn1ncc2ccccc21 (stereo not drawn)	x	27%	x	-2%	-1%	12%	0%	6%[46.1 µM]
COc1ccc2nc(N/C(N)=N/C(=S)Nc3ccc(C)c(C)c3)nc(C)c2c1	13µM*	2%	-12%	u	u	x	x	3%
CC(c1ccccc1)n1c(-c2ccc(Cl)cc2)n[nH]c1=S (stereo not drawn)	x	20%[46.1 µM]	x	6%	12%	7%	14%	17%[46.1 µM]
CC(C)c1nc(SCC(=O)c2c[nH]c3ccccc23)n[nH]1	x	-1%	x	1%	0%	-1%	-2%	-1%[46.1 µM]
CC(COc1ccccc1)N1CCC(CO)(Cc2ccccc2)CC1 (stereo not drawn)	x	14%[46.1 µM]	x	3%	0%	-6%	-12%	u
CN(C)S(=O)(=O)N1CCc2ccccc2C1	-7%	-2%	3.6%	u	3%	-13%	-4%	22%
Cc1ccc2[nH]c3c(c2c1)CN(C(=O)CN1CCCCC1)CC3	x	x	x	-2%	-4%	-1%	-24%	x
Nc1c(C(=O)NCc2ccccc2)c2nc3ccccc3nc2n1-c1ccc2c(c1)OCO2	u	u	-3.4%	18%	0%	8%	x	u
Cc1cccc(N2CC(C(=O)NC3CCCCCC3)CC2=O)c1C (stereo not drawn)	x	0%	x	x	-3%	2%	-20%	1%
COc1ccc(C(=O)NC(=S)Nc2nc(C)c(C(=O)N(C)C)s2)cc1	-6%	16%	-5.7%	6%	-2%	3%	10%	8%
Cc1ccc(N2C(=O)C3CCCN3C2=S)cc1Cl (stereo not drawn)	x	x	x	-6%	-1%	-19%	-16%	x
CCOC(=O)c1[nH]c2ccc(Cl)cc2c1NC(=O)c1nonc1C	10µM*	-2%	-1.8%	10%	u	1%	-17%	9%
NC(=O)COC(=O)c1c2c(nc3ccccc13)CCCC2	x	0%	x	x	-1%	3%	-9%	11%[46.1 µM]
COC(=O)[C@@H]1C[C@H]2CC[C@H](O)C[C@H]2N1Cc1ccccc1OS(=O)(=O)c1ccc(C)cc1	-2%	x	0.4%	0%	1%	1%	-15%	x
CCN(CC)CCNC(=O)CN1C(=O)COc2ccc(S(=O)(=O)N3CCOCC3)cc21	1%	11%[46.1 µM]	-0.1%	-8%	0%	7%	1%&-19%	1%&1%[46.1 µM]
CCc1ccc(S(=O)(=O)c2nnn3c2nc(N2CCCC(C)C2)c2cc(Cl)ccc23)cc1 (stereo not drawn)	12%	x	-2.8%	x	x	x	0%	21%[46.1 µM]
O=C(CSCCO)Nc1cccc(C(F)(F)F)c1	-7%	-26%[14.3 µM]	2.2%	3%	-5%	8%	-1%	-2%
O=C(C=C1CCN(c2ncc(C(F)(F)F)cc2Cl)CC1)NNC(=O)Nc1ccccc1	-9%	20%	5.4%	3%	3%	2%	0%	6%
O=C1NC(=S)N/C1=C\c1ccc(Oc2ccc(C(F)(F)F)cc2[N+](=O)[O-])c(Cl)c1	x	x	x	-2%	0%	5%	-9%	x
COc1ccc(C2C(C#N)=C(N)Oc3n[nH]c(C)c32)cc1CN1CCN(c2ccc(F)cc2)CC1 (stereo not drawn)	7%	-25%	-3.6%	-31%	6%	15%	u	u
S=c1[nH]nc(-c2ccc3ccccc3n2)n1-c1ccccc1	-16%	-25%	-2.1%	14%	17%	x	-5%	29%
Cc1ccccc1NC(=O)c1ccc([N+](=O)[O-])o1	x	-18%	x	-1%	-1%	-29%	-30%	u
CCOC(=O)c1ccc(NC2=CC(c3ccc(O)c(OCC)c3)N(c3ccc(C(=O)OCC)cc3)C2=O)cc1 (stereo not drawn)	0%	10%[46.1 µM]	-1.4%	x	x	x	-13%	-7%[46.1 µM]
Cc1ccc(C(=O)NNC(=O)Cc2csc(-c3csc(C)n3)n2)cc1	x	x	x	0%	0%	-4%	-14%	x
CCOC(=O)c1c(NC(=O)C(=O)N/N=C/c2ccc(OCC)cc2)sc2c1CCCCC2	u	8%	-4.4%	10%	-14%	14%	-10%	-13%
COc1ccc(CCNC(=O)Cn2cc(C(=O)c3ccc(F)cc3)c(=O)c3ccc(C)nc32)cc1OC	13%	-6%[46.1 µM]	0.1%	x	x	x	-18%	x
Cc1ccc(-c2nnn(CC(=O)Nc3ccc(S(=O)(=O)N4CCC(C)CC4)cc3)n2)cc1	10µM*	-15%	2.9%	1%	1%	1%	-25%	u
COc1ccc(COCC(O)CN2CCOCC2)cc1OC (stereo not drawn)	-6%	3%	2.3%	3%	1%	17%	-3%	10%
COc1ccc(CCNC(=O)[C@H](C)N2C(=O)N3CCc4c([nH]c5ccccc45)[C@@]3(C)C2=O)cc1	x	x	x	-72%	-24%	-6%	u	x
COc1cccc(-c2nnc(N(C)C(=O)C3CCOC3)s2)c1 (stereo not drawn)	7%	-5%	0.3%	-18%	8%	7%	40%[activator]	7%

Molecules listed so far containing an NH in an aromatic ring:
SMILES	Cruzain noTriton	Lassa entry inh	Cruzain inh Det	NS1 function inh	SARS PLpro yeast	RE007 growth inh	2A StopGo	Marburg entry inh
CC(c1ccccc1)n1c(-c2ccc(Cl)cc2)n[nH]c1=S (stereo not drawn)	x	20%[46.1 µM]	x	6%	12%	7%	14%	17%[46.1 µM]
CC(C)c1nc(SCC(=O)c2c[nH]c3ccccc23)n[nH]1	x	-1%	x	1%	0%	-1%	-2%	-1%[46.1 µM]
Cc1ccc2[nH]c3c(c2c1)CN(C(=O)CN1CCCCC1)CC3	x	x	x	-2%	-4%	-1%	-24%	x
CCOC(=O)c1[nH]c2ccc(Cl)cc2c1NC(=O)c1nonc1C	10µM*	-2%	-1.8%	10%	u	1%	-17%	9%
COc1ccc(C2C(C#N)=C(N)Oc3n[nH]c(C)c32)cc1CN1CCN(c2ccc(F)cc2)CC1 (stereo not drawn)	7%	-25%	-3.6%	-31%	6%	15%	u	u
S=c1[nH]nc(-c2ccc3ccccc3n2)n1-c1ccccc1	-16%	-25%	-2.1%	14%	17%	x	-5%	29%
COc1ccc(CCNC(=O)[C@H](C)N2C(=O)N3CCc4c([nH]c5ccccc45)[C@@]3(C)C2=O)cc1	x	x	x	-72%	-24%	-6%	u	x

Further structures follow.
SMILES	Cruzain noTriton	Lassa entry inh	Cruzain inh Det	NS1 function inh	SARS PLpro yeast	RE007 growth inh	2A StopGo	Marburg entry inh
Cc1ccc([N+](=O)[O-])cc1NC(=O)/C=C/C(=O)O	x	x	x	1%	-1%	5%	-20%	x
COc1cccc(NC(=O)CN(C)C(=O)c2c(-c3ccccc3)noc2C)c1	x	2%	x	7%	-1%	-9%	u	0%
Cc1cccc(OC(C)C(=O)Nc2ccc(S(=O)(=O)N3CCCC3)cc2)c1 (stereo not drawn)	x	u	x	-14%	0%	10%	u	u
CCn1c(SCC(=O)O)nnc1-c1ccc2[nH]c(C)c(C)c2c1	-7%	-11%	-2.5%	16%	5%	-11%	14%	3%
O=C(Nc1ccc(F)c(Cl)c1)c1cc(-c2ccco2)on1	x	-3%	x	-9%	-2%	-23%	92%[activator]	4%[46.1 µM]
Cn1cc(CN2CCCC(CNC(=O)c3ccc4c(c3)OCO4)C2)c2ccccc21 (stereo not drawn)	x	18%[46.1 µM]	x	1%	13%	-21%	-2%	7.9µM*
Cc1cc(=O)n(CC(=O)Nc2ccc(Cl)c(Cl)c2)c(-n2nc(C)cc2C)n1	-12%	-28%[46.1 µM]	2.1%	x	x	x	-5%	x
CC(C)NC(=O)NC(=O)CN1c2cccc3cccc(c23)S1(=O)=O	x	x	x	4%	1%	32%	-5%	x
COc1ccc(C2CC(=O)c3sc(NC(C)=O)nc3C2)cc1 (stereo not drawn)	-21%	-7%	-12%	18%	19%	7%	-1%	u
Cc1ccc2c(c1)N(CC(=O)N1CCN(c3nc4ccccc4s3)CC1)C(=O)C(C)O2 (stereo not drawn)	u	15%	-4.1%	-5%	5%	4%	u	-2%
COc1cccc2cc3c(=O)oc4ccccc4c3nc12	-2%	0%	5.4%	-6%	0%	-2%	12%	-2%
CC(=O)c1ccc(NC(=O)c2cc3ccccc3o2)cc1	x	x	x	-11%	-2%	-5%	73%[activator]	x
COc1ccc(C(=O)/C=C2\NCCc3cc(OC)c(OC)cc32)cc1OC	x	x	x	11%	0%	13%	-26%	x
O=c1c2ccccc2nc2n1CCS2(=O)=O	x	u	x	1%	0%	3%	32µM*	23%[46.1 µM]
O=C(NNC(=O)c1ccncc1)Nc1cccc([N+](=O)[O-])c1	x	x	x	5%	0%	-5%	-1%	x
CCCCCCCc1n[nH]c(=S)n1Cc1ccccc1	x	-17%	x	-2%	0%	4%	-13%	2%
CCc1nc2cc(Cl)c(Cl)cc2[nH]1	-28%	2%	-6.9%	-121%	-36%	-18%	-13%	-14%
CCOc1ccc(NC(=O)CN2CCN(CC(=O)Nc3ccc4c(c3)OCO4)CC2)cc1	-1%	-3%	-0.8%	-5%	-3%	19%	-7%	-2%

Screens deposited in PubChem by National Center for Advancing Translational Sciences (NCATS).
